hNpr1 antagonist: human Npr1 receptor antagonism; HEK293 hNpr1 GloSensor cGMP, ANP-stimulated luminescence; P16066; hit rate 1.6% among 76,000; AID 1347048; Potency, µM (titrated, usually from 46.3 µM), without a hit: top-dose activity change, negative = inhibition, hits mostly inhibitors; active = well fitted inhibition curve with a large enough effect; inconclusive = small, poorly fitted or top-dose-only effect; inactive = no such curve, though single readings can be large or run the other way;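 note: nearly all actives have a fitted effect of over 60% in size; nearly all hits also lower the signal before the agonist is added; a reference antagonist and vehicle were the controls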
Target sequence (P16066 whole entry, looked up): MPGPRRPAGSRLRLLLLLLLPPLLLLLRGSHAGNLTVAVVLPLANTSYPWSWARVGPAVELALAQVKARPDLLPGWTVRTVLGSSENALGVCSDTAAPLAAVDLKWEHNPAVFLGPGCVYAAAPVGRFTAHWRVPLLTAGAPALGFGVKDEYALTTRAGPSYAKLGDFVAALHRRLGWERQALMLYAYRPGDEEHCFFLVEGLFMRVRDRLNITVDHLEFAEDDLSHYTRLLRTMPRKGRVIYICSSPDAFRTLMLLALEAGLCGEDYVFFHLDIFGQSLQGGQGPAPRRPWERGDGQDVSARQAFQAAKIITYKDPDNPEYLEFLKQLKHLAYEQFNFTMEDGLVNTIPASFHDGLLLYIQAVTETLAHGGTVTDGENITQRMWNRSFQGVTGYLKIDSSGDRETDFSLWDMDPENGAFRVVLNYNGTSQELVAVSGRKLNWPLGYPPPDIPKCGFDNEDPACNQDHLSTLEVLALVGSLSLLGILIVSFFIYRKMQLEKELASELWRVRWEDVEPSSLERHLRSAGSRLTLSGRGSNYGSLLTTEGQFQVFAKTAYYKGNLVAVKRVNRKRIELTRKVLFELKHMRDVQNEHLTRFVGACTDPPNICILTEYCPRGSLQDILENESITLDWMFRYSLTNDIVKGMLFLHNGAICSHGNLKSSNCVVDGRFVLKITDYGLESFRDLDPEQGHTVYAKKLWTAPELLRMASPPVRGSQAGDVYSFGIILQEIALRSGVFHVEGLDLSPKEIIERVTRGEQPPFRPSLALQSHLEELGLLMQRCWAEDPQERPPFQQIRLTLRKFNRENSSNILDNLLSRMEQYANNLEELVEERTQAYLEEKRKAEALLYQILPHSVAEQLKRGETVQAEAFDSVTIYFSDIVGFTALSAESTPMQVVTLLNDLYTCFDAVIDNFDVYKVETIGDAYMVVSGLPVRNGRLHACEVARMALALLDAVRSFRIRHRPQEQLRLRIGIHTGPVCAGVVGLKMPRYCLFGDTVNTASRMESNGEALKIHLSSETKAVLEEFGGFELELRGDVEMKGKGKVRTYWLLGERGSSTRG
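Compound pre-incubated 30 min at room temperature on GloSensor-loaded HEK293 cells stably carrying hNpr1 and the pGS-40F cGMP biosensor. Stimulation uses hNppA at 0.1 nM final; luminescence is taken at baseline and 20 min post-agonist.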
* marks the source's active call; other numbers are inactive results; ? = inconclusive; [ ] = dose if it differs, or a comment. % is set by controls: 0 for no effect and ±100 for the full control effect; potency is the fitted concentration of half-maximal effect.

Start of the data: the first three records, ahead of the listing:
Molecule	hNpr1 antagonist
CCc1nc(-c2ccc(OC3CCN(S(=O)(=O)c4cn(C)cn4)C3)cc2)no1 (centres undefined)	-5%
COc1ccc(CNC(=O)C2CCN(C(=O)c3nnn4c3COC(c3ccc(C)cc3)C4)CC2)cc1 (centres undefined)	4%
COC(=O)c1ccc(CN2C(=O)[C@@H]3C[C@@H](O)CN3C3(CN(C(C)C)C3)C2=O)cc1	-1%[70.6 µM]

The listing, repeating the preview:
Molecule	hNpr1 antagonist
CCc1nc(-c2ccc(OC3CCN(S(=O)(=O)c4cn(C)cn4)C3)cc2)no1 (centres undefined)	-5%
COc1ccc(CNC(=O)C2CCN(C(=O)c3nnn4c3COC(c3ccc(C)cc3)C4)CC2)cc1 (centres undefined)	4%
COC(=O)c1ccc(CN2C(=O)[C@@H]3C[C@@H](O)CN3C3(CN(C(C)C)C3)C2=O)cc1	-1%[70.6 µM]
COCCOC1CCN(S(=O)(=O)c2cn(C)cn2)CC1	0%
CCCc1noc(-c2cn(C3CCN(C(=O)c4ccc(C#N)cc4)CC3)nn2)n1	-12%
CNC(=O)[C@@H]1C[C@@H](O)CN1C1CCN(C(=O)c2ccc(OC)c(F)c2)CC1	5%
Cc1ccc(CN2CCN(C(=O)C3CCCCC(=O)N3C)CC2)cc1 (centres undefined)	-15%
COC[C@@H]1CN(C(=O)c2nn(C)c3ccccc23)C[C@H]1C(N)=O	4%
COc1ccccc1Oc1ncccc1CNC(=O)c1ccc2n[nH]nc2c1	1%
Cc1ccc(C)c(C(=O)N2CCN(c3cc(-c4ccc(Cl)cc4)[nH]n3)CC2)c1	14µM*
O=C(c1ccn[nH]1)N1CCC(c2nc(CCOCC3CCOCC3)no2)C1 (centres undefined)	4%
O[C@@H]1C[C@@H](c2nnc3n2CCN(CC2CC2)C3)N(Cc2cccnc2)C1	4%
Cc1ccc2nc3n(c2c1)[C@@H](CNC(=O)COc1ccccc1)COC3	-26%[70.6 µM]
CC(C)NC[C@H]1O[C@@H]2C[C@@H](CC(=O)NC(C)C)O[C@@H]2[C@@H]1O	2%[70.6 µM]
COC(=O)[C@H](Cc1ccc(OC)cc1)NC(=O)[C@@H]1CN(C(=O)NC(C)C)CCN1C(=O)c1cccs1	-2%
Cc1cc(C(=O)N2CCCC(c3nc(C4CCOCC4)no3)C2)n(C)n1 (centres undefined)	11%
COCc1noc([C@@H]2CN(C3CCN(CC(C)C)CC3)C[C@H]2CO)n1	-3%
CN(CC1(C)CCOCC1)C(=O)c1ccc2c(c1)OCO2	-11%
COCCN1C(=O)c2cccn2CC1CNC(=O)c1cccc(OC)c1 (centres undefined)	2%
O=C(Nc1ccccc1Br)N1CCC2(CC1)SCC(=O)N2Cc1ccco1	0%
Fc1ccccc1-c1noc(-c2nc(-c3ccncc3)no2)n1	-15%
Cc1noc(C)c1[S+](=O)([O-])N1CCc2nc(C(C)C)nc(-c3ccc(O)cc3)c2C1	-4%
O=S(=O)(c1ccc(F)cc1)N1CCOC[C@H](Oc2ccc(C(F)(F)F)cn2)C1	?
O=C(c1ccccc1)N1CCCN(c2nc3ncccc3o2)CC1	5%[70.6 µM]
CCNC(=O)[C@@H]1C[C@H](NC(=O)c2ccn(CC)n2)CN1Cc1nc(C)no1	4%
CC[C@H]1CN(C(=O)c2ccnc(Cl)c2)CC[C@H]1CC(=O)Nc1ccccc1	5%[70.6 µM]
COc1ccc(CNc2ncnc3c2CN(c2ccc(OC)cc2)C(=O)CN3C)cc1	-2%
O=C(CCC[C@H]1NC[C@@H]2C[C@H]1CN(Cc1ccccc1)C2)NC1CCN(Cc2ccccc2)CC1	2%
CCCN(C)c1nccnc1OC1CCN(C(=O)C(C)C)C1 (centres undefined)	-14%
Cc1cccc(-c2cc(C3CCN(S(=O)(=O)c4ccc(C#N)cc4)CC3)[nH]n2)c1	-20%
COc1ccccc1Oc1ncccc1CNC(=O)c1ccc(CO)o1	4%
COc1cccc(NC(=O)c2cc3c(N4CCSCC4)nc(C)cn3n2)c1	0%
Cc1ccc(CN2CC[C@@H]3[C@H]2C(=O)NC[C@H](CCC(=O)NCc2ccco2)N3C)cc1	7%[70.6 µM]
Cc1cc(C)c2c(CC(=O)N3C[C@@H]4CCN(C)C[C@]4(C(=O)O)C3)coc2c1	9%
CN1CCC(N[C@H]2C[C@@H](Cc3cc(-c4ccc(F)cc4)on3)C2(C)C)CC1	?
O=C(Nc1ccccc1)c1nc2c(o1)CCN(Cc1ccc(O)cc1)CC2	25µM*
COc1ccccc1CNC(=O)CCC1CCCN(S(=O)(=O)c2ccccc2F)C1 (centres undefined)	-3%
O=C(NC1CCCC1)C1Cn2cccc2C(=O)N1Cc1cccnc1 (centres undefined)	7%
CNc1nccnc1-c1ccccc1S(=O)(=O)NC(C)(C)C	-1%
CC(C)N1Cc2cc(C(=O)Nc3cccc4c3CCCC4)sc2C1	-14%

Sorted by value in hNpr1 antagonist (descending): some entries from above
Structure	hNpr1 antagonist
COc1ccccc1CNC(=O)CCC1CCCN(S(=O)(=O)c2ccccc2F)C1 (centres undefined)	-3%
CCCN(C)c1nccnc1OC1CCN(C(=O)C(C)C)C1 (centres undefined)	-14%
Cc1cccc(-c2cc(C3CCN(S(=O)(=O)c4ccc(C#N)cc4)CC3)[nH]n2)c1	-20%

Additional results
Molecule	hNpr1 antagonist
CCCCN1CCN(C(=O)c2cc(Cl)c(C)c(Cl)c2)CC1=O	4%
CC1=C[C@@H](CNC(=O)CC2(CC(=O)O)CCCC2)[C@H](C(C)C)C[C@H]1Cc1nc2ccccc2n1C	1%
COc1cccc(-c2ccccc2NC(=O)C2CCN(Cc3cc(OC)ccc3O)CC2)c1	?
COc1ccc(C(=O)N2CCCCCNC(=O)[C@@H]3CCCC[C@@H]32)c(OC)n1	0%
Cc1ccc(-c2nc3cnccn3c2NCCC(=O)O)cc1	2%
O=C1CCN(Cc2ccncc2)CCCC(C(=O)NCc2cccnc2)CCN1 (centres undefined)	3%
CC(c1cccs1)N(C)C(=O)Cc1cccc(Cl)c1 (centres undefined)	27%[70.6 µM]
Cc1noc([C@@H]2CN(C(=O)c3ccncn3)C[C@H]2C(N)=O)n1	110%[activator]
CCc1ccccc1NC(=O)CN1C(=O)NC2(CCCCC2)C1=O	12%
Oc1cccc(-c2cc(-c3cccnc3)c3cncn3c2)c1	-27%[70.6 µM]
COc1ccccc1CN1CCNc2cc(Nc3ccccc3)ncc2C1	-20%[70.6 µM]
O=C(C[C@@H]1CCNC[C@@H]1Cc1cc(COc2ccccc2)on1)N1CCC(n2c(=O)[nH]c3ccccc32)CC1	6%
O=C(Cc1c[nH]c2ncc(-c3cccnc3)cc12)Nc1ccc(C(F)(F)F)cc1	?
COCCN1C(=O)c2cccn2CC1CNC(=O)c1ccc(OC)cc1 (centres undefined)	-3%
COc1cc(NC(=O)O[C@@H]2CC[C@]3(C)C(CC[C@@H](O)[C@H]3CC(=O)N3CCCC3)[C@]2(C)CO)cc(OC)c1 (some centres undefined)	2%
Cc1ccc(C2Cn3nnc(C(=O)N4CCN(C(=O)c5cccs5)CC4)c3CO2)cc1 (centres undefined)	-26%
CO[C@H]1C(=O)N(C2CCN(C(=O)NCc3ccccc3)CC2)[C@H]1c1ccncc1	2%
O=C(Cn1nc2c(cc1=O)CCCC2)NC1CCCc2c1[nH]c1c(Cl)cccc21 (centres undefined)	7%
COc1ccccc1Nc1ncc2c(n1)CN(C(=O)Cc1cccc(F)c1)CCN2	2%[70.6 µM]
COc1cc(F)ccc1-c1cc(C(=O)NCc2c(C)cc(C)[nH]c2=O)c2c(c1)ncn2C	4%[70.6 µM]
Cc1cnc(CC2CCN(C(=O)Cc3cccc(F)c3)CC2)n1CC1CC1	5%
Cc1oc(C(O)c2ccccc2F)nc1C(=O)Nc1ccc2[nH]c(=O)[nH]c2c1 (centres undefined)	1%[70.6 µM]
O=C(N[C@H](C1CCNCC1)C1CC(O)C1)c1ccc2nccnc2c1 (some centres undefined)	6%
CC(C)CCN1CCC2(CC1)C(=O)NCN2Cc1ccc(Cl)cc1	12%
O=C(Nc1ccc(C(F)(F)F)cc1)N1CCCC(Cn2c(C3CC3)nc3cccnc32)C1 (centres undefined)	-19%
Cc1nc2ccc(C(=O)N3CC(=O)N(c4ccc(Cl)cc4)CC3C)cc2[nH]1 (centres undefined)	4%
CCC(C)NC(=O)Cn1c(C)ccc(NC(=O)Nc2ccc(C)cc2)c1=O (centres undefined)	-23%
CCOc1ccc(OCC)c(NC(=O)CCn2ccn3nc4c(c3c2=O)CCCC4)c1	-3%
c1ccc(-c2noc(-c3cncnc3NCc3cccs3)n2)cc1	-1%
COc1ccc(C(=O)N(C)C2CCc3nnc(C)n3CC2)cc1F (centres undefined)	2%
Cn1cc(Nc2ccc(Cl)cc2)c2nc(CN3CC[S+](=O)([O-])CC3)cn2c1=O	-6%[70.6 µM]
COC(=O)[C@H](NC(=O)[C@@H]1C[C@H](NC(=O)NC(C)C)CN1C(=O)CSC)C(C)C	0%[70.6 µM]
CN(C)C[C@@H]1CN(S(C)(=O)=O)C[C@H]1NC(=O)Cn1c(=O)oc2ccccc21	2%
Cc1cc(C(=O)N2C[C@@H](COCC3CC3)[C@H](c3ccccn3)C2)ccn1	2%
O=S(=O)(c1ccc2c(c1)OCCCO2)N1CC[C@H](CO)[C@@H](O)C1	5%
Cc1cc(CNC(=O)[C@@H]2CCC[C@@H](N(C)C)CN(C)C(=O)C2)no1	0%[70.6 µM]
O=C(c1ccccc1F)N1CCc2n[nH]c(=O)n2CC1	0%
CCOc1cc(C(=O)N2CCC[C@H]2c2nc(-c3ccc(F)cc3)no2)cc(OCC)c1OCC	-10%
CCN1C(=O)C2CC3(CCN(C(=O)c4n[nH]c(=O)c5ccccc45)CC3)CN2C1=O (centres undefined)	-1%
CC(C)c1nc(CNC(=O)c2ccc(OC3CCN(C(=O)C4CC4)CC3)cc2)cs1	?

Given with values ahead of the structure: part of the list above
hNpr1 antagonist | Structure
0% | O=C(c1ccccc1F)N1CCc2n[nH]c(=O)n2CC1
-10% | CCOc1cc(C(=O)N2CCC[C@H]2c2nc(-c3ccc(F)cc3)no2)cc(OCC)c1OCC
-1% | CCN1C(=O)C2CC3(CCN(C(=O)c4n[nH]c(=O)c5ccccc45)CC3)CN2C1=O (centres undefined)

(listing goes on)
SMILES	hNpr1 antagonist
c1ccc(-c2cc3c(cn2)NCCN(Cc2ccccn2)C3)cc1	1%[70.6 µM]
CCCNC(=O)c1cc2c(=O)[nH]c(C)cn2n1	0%
CCCCCCNC(=O)Cc1csc2nc(C)c(-c3cc(C)n(-c4ccccc4F)n3)c(=O)n12	-3%
O=C(c1ccc2c(c1)OCO2)N1CCN(c2cc(-c3cccs3)[nH]n2)CC1	-25%
CC1(Cc2ccc3c(c2)OCO3)CCCN(C(=O)c2ccccc2-n2cncn2)C1 (centres undefined)	-19%
O=[S+]([O-])(c1cccc(C(F)(F)F)c1)N1CCC2(CCN(CCc3ccccc3)c3ccccc3O2)CC1	3%
O=c1c2nc(-c3ccsc3)ccc2ncn1Cc1ccccc1	-4%[70.6 µM]
COc1ccc(OC)c(S(=O)(=O)N2CCCCCCN(C)C(=O)[C@@H]3CCC[C@@H]32)c1	-16%
COc1ccc(-c2nc(-c3nnn4c3COC(c3ccc(C)cc3)C4)no2)c(OC)c1 (centres undefined)	-18%
CCOc1ccc(C(=O)N2CCn3nc(Cc4ccccc4)cc3C2)cc1	3%
COC1C(=O)N(C2CCN(S(=O)(=O)c3cn(C)cn3)CC2)C12CCOCC2 (centres undefined)	-2%
CCNC(=O)N1CCC(Cc2ncc(C)n2C(C)C)C1 (centres undefined)	-2%
Cn1c(CO[C@H]2CN(Cc3ccncc3F)C[C@H]2F)nc2ccccc21	2%[70.6 µM]
C=CCOc1ccc(-c2nnc(CCC(=O)NCCOc3ccccc3)c(=O)[nH]2)cc1	-4%
Cc1ccc2c(n1)N(C)[C@H](CO)CCN(Cc1ccc(C#N)cc1)C2	1%[70.6 µM]
Cc1cc(F)ccc1-c1[nH]nc2ncc(-c3ccc([S+](C)(=O)[O-])cc3)nc12	-12%[70.6 µM]
O=C(NCc1ccccc1F)C1CCN(C(=O)c2ncn3c2COC(c2ccc(Cl)cc2)C3)CC1 (centres undefined)	0%
Cc1cccc(C)c1NC(=O)Cn1ccn2nc(-c3ccc(F)cc3)c(CO)c2c1=O	0%
CC(C)Cc1cc(CNC(=O)Nc2nnc(C(C)(C)C)s2)on1	-22%
Cc1ccc(C(=O)NC(C(=O)N2CCCC2)C2CCN(C(=O)c3cccc(F)c3)CC2)cc1 (centres undefined)	-9%
CC(C)NC(=O)N[C@H]1CCN2C(=O)c3cc(-c4ccccc4F)ccc3NC(=O)[C@H]12	-9%[70.6 µM]
COc1ccc(Cl)cc1C(=O)N1CCC(Oc2ncccc2C(=O)N2CCCCC2)C1 (centres undefined)	-4%
COCc1noc([C@@H]2CN(C(=O)C3CCCCCC3)C[C@H]2CO)n1	0%
Cc1nn2c(c1-c1ccccc1C(C)C)N(C(=O)COc1ccccc1C(N)=O)CCC2	-10%[70.6 µM]
CN(CC1CCOCC1)C(=O)Nc1cccc(Cl)c1	-1%
COc1ccc(OC)c(NC(=O)Cn2c(-c3ccc(Cl)cc3)nc(C)c(CCO)c2=O)c1	-2%
CS(=O)(=O)N1CCC2(CC1)CC(=O)N(CCCc1ccccc1)C2	6%
COc1ccccc1CCC(=O)NCc1nnc2ccc(-c3ccc(C)c(C)c3)nn12	-7%
CCCn1nccc1S(=O)(=O)N[C@@H]1CCOC[C@H]1Oc1ccccn1	15%

Not all compounds are listed. The share of hits here may be higher or lower than overall.
